# 2A firefly: lowers the firefly signal of an FMDV 2A StopGo reporter. Potency, µM (highest dose often 57.5 µM), for inactives: at the highest dose signal change, negative = less light. hit rate 0.23% among 120,000. HEK cells with a luciferase reporter of 2A StopGo recoding; active = well fitted falling curve with a large enough effect; inconclusive = small, poorly fitted or top-dose-only effect; inactive = no such curve, though single readings can be large or run the other way; also: nearly all actives have a fitted effect of over 60% in size; overnight with compound
# StopGo RLuc: FMDV 2A StopGo reporter, Renilla signal; HEK cells with a luciferase reporter of 2A StopGo recoding; Potency, µM (titrated, usually from 57.5 µM), inactives show top-dose signal change, negative = less light; hit rate 0.32% among 120,000; AID 1745857; active means well fitted falling curve with a large enough effect; inconclusive means small, poorly fitted or top-dose-only effect; inactive means no such curve, though single readings can be large or run the other way; also: nearly all actives have a fitted effect of over 55% in size; overnight with compound
# The depositor's hits bear a star; ? = inconclusive; [ ] = another dose, or the depositor's remark. % is scaled to controls: 0 for no effect and ±100 for the full control effect; potency is read from the fitted curve at half-maximal effect. Not all compounds are listed; the hit share may differ from the screen's.
SMILES,2A firefly,StopGo RLuc
CCN(C(=O)Cn1c(=O)c2c(ncn2CC)n(Cc2ccccc2)c1=O)c1cccc2ccccc12,5.3%,2.1%
CNc1c(NC(=O)C2CC(=O)N(c3ccccc3)C2)c(=O)oc2ccccc12 (stereo not given),-6.3%,-6.9%
COc1ccc(CCNc2nc3c(-c4cccc(F)c4)nnn3c3ccccc23)cc1OC,11.2%,-7.5%
Cc1c(C)n2c3c(=O)[nH]c(=O)n(C)c3nc2n1CCCN1CCN(C)CC1,-6.3%,-4.5%
O=S(=O)(CCSc1nnc(-c2ccccc2)o1)c1ccc(Br)cc1,-1.4%,8.4%
Cc1ccc(CN(C(=O)COc2ccc([N+](=O)[O-])cc2)c2ccccn2)o1,60.3%[activator],38.3%[activator]
COCC(C)n1c(C)cc(C(=O)CSc2nc3nc(C)cc(C)n3n2)c1C (stereo not given),0.9%,-13.3%
COc1ccccc1N1CCN(C(=O)CCc2c(C)nn(-c3ccc(N4CCCC4)nn3)c2C)CC1,6.6%,11.5%
COc1cc(CN(C(=O)COc2c(C)cccc2C)c2ccccn2)cc(OC)c1OC,0.1%,79.9%[activator]
Fc1ccc(-n2ncc3c(NCCCc4ccccc4)ncnc32)cc1,120.6%[activator],-11.9%

# Overlap with the part before: four compounds, then new ones.
SMILES,2A firefly,StopGo RLuc
COCC(C)n1c(C)cc(C(=O)CSc2nc3nc(C)cc(C)n3n2)c1C (stereo not given),0.9%,-13.3%
COc1ccccc1N1CCN(C(=O)CCc2c(C)nn(-c3ccc(N4CCCC4)nn3)c2C)CC1,6.6%,11.5%
COc1cc(CN(C(=O)COc2c(C)cccc2C)c2ccccn2)cc(OC)c1OC,0.1%,79.9%[activator]
Fc1ccc(-n2ncc3c(NCCCc4ccccc4)ncnc32)cc1,120.6%[activator],-11.9%
COP(=O)(OC)c1nc(-c2cccc([N+](=O)[O-])c2)oc1NCc1ccc(C)cc1,-9.5%,-9.3%
COc1ccc2oc(=O)c(-c3nc(-c4ccc(C)c(C)c4)cs3)cc2c1,-3.6%,2.8%
COc1cccc(-c2nc(C#N)c(N3CCN(C(=O)c4ccccc4OC)CC3)o2)c1,?,?
CC(C)(C)c1ccc(Nc2ccc(C(C)(C)C)cc2)cc1,3.1%,-4.9%
CCc1ccccc1NC(=O)CCS(=O)(=O)c1ccc2c(c1)oc(=O)n2C,6.5%,-3.7%
Cc1csc(NC(=O)CSc2nc3ccccc3[nH]2)n1,40.3%[activator],2.7%
CCOC(=O)Cn1c(=O)n(C2CCCCC2)c2nc(-c3c(F)cccc3Cl)nc(C(N)=O)c21,0.9%,3.4%
CCC(CC)c1nnc(NC(=O)CCc2c[nH]c3ccccc23)s1,2.8%,-3.4%
Cc1ccc(I)c(C)c1[N+](=O)[O-],-8.4%,-11.3%
Cc1ccc(Nc2nc(NCCO)nc3c2cnn3C)cc1C,13.4%,15.2%

# Next part; the last 4 above are carried over.
SMILES,2A firefly,StopGo RLuc
CCOC(=O)Cn1c(=O)n(C2CCCCC2)c2nc(-c3c(F)cccc3Cl)nc(C(N)=O)c21,0.9%,3.4%
CCC(CC)c1nnc(NC(=O)CCc2c[nH]c3ccccc23)s1,2.8%,-3.4%
Cc1ccc(I)c(C)c1[N+](=O)[O-],-8.4%,-11.3%
Cc1ccc(Nc2nc(NCCO)nc3c2cnn3C)cc1C,13.4%,15.2%
O=C(CCn1nc(-c2ccc(Cl)cc2)c2ccccc2c1=O)Nc1ccc(Cl)cc1,10.8%,22.8%
O=C(Nc1ccccc1)c1cc(S(=O)(=O)N2CCOCC2)ccc1F,6.7%,-5.5%
CCCSc1nnc2c(n1)OC(c1sccc1C)Nc1ccccc1-2 (stereo not given),107.6%[activator],-1.4%
O=C(Cn1cc(C(F)(F)F)cc(Cl)c1=O)Nc1cc(C(F)(F)F)ccc1Cl,-14.8%,-14.3%
Cc1ccc(Cl)cc1N(CC(=O)N1CCCC1)S(=O)(=O)c1ccccc1,1.4%,153.3%[activator]
COc1ccccc1-c1nc(CSc2nc(C)cc(=O)[nH]2)c(C)o1,54.4%[activator],61.7%[activator]
O=S(=O)(Nc1nc2ccccc2nc1NCC1CCCO1)c1cccc(Cl)c1 (stereo not given),6.3%,113.6%[activator]
O=C(COC(=O)c1cc(=O)[nH]c2ccccc12)c1cccc2ccccc12,-1.0%,2.4%
Cc1cc(C)c(S(=O)(=O)NCc2csc(-c3ccccc3)n2)c(C)c1,22.2%,157.6%[activator]
Cc1ccc(NS(=O)(=O)c2cc(-c3n[nH]c(=O)c4ccccc34)ccc2C)cc1,?,-20.6%
Cc1ccc(NC(=O)N2CCc3c(sc4c3CCCC4)C2c2ccccc2)cc1F (stereo not given),16.6%,0.3%
Cc1cc(C(=O)O)c(C)s1,6.1%,-0.4%
CCC1=C(c2ccc(C)cc2)S(=O)(=O)N=C1N1CCC(C(=O)NCc2ccc(N(C)C)cc2)CC1,36.7%[activator],70.6%[activator]
CC(=O)c1c(Cl)nc2ccc(Cl)cc2c1-c1ccccc1,11.3%,14.5%
CCC(CC)C(=O)Nc1cccc(-c2nc3cccnc3s2)c1,4.7%,-8.3%
Cc1ccc(-c2cc(=O)c3cc(Cl)cc(Cl)c3o2)cc1,188.4%[activator],-2.4%
Cc1ccc(CNCc2ccc(C(=O)O)cc2)s1,3.8%,5.6%
CC1=C(C(=O)OCC(C)C)C(c2ccc(OCc3ccccc3)cc2)N2C(=O)CCSC2=N1 (stereo not given),-7.4%,-18.2%
COCc1nnc(NC(=O)C2CC(=O)N(c3ccc(F)cc3)C2)s1 (stereo not given),7.4%,6.1%
CCN(c1ncnc2c1cnn2-c1cccc(Cl)c1)C1CCCCC1,44.1%[activator],-2.7%
Cc1ccc(C(O)CNC(=O)Nc2c(C)cccc2C)cc1 (stereo not given),1.8%,12.8%
CCC(CC)C(=O)Nc1nnc(S(=O)(=O)N2CCc3ccccc32)s1,-12.2%,2.6%
Cc1cc(C)n(-c2nc3ccccc3nc2N2CCN(C(=O)c3ccc(F)cc3)CC2)n1,-8.6%,2.8%
COc1ccc(/C=C/C(=O)Oc2ccc3ccccc3c2)cc1,0.0%,8.2%
Cc1oc(-c2nc(C#N)c(N(C)C)o2)cc1S(=O)(=O)N(C)c1ccccc1,15.0%,-3.2%
Cn1c(C=C(C#N)C#N)ccc1-c1cc(Cl)cc(Cl)c1,-10.0%,-9.0%
CC(C)COCCCNC(=O)c1cc(-c2ccncc2)nc2ccccc12,1.2%,-0.6%
COc1ccc(NC(=O)C(C)n2nc(-c3ccc(C)cc3)c3c(c2=O)CCCC3)cc1 (stereo not given),2.9%,-7.2%
CCCCc1nc2ccccc2n1CC(O)c1ccc(F)cc1 (stereo not given),3.0%,37.0%[activator]
COc1ccccc1CNC(=O)c1cc(Sc2cccc(Cl)c2)nc2ccccc12,-8.7%,44.9%[activator]
Cc1occc1C(=O)Nc1nc(CC(=O)Nc2ccc3c(c2)Cc2ccccc2-3)cs1,12.5%,-3.7%
COc1ccc(NCc2cccn2-c2nnc(N3CCC(C)CC3)s2)c(OC)c1,?,9.6%
Cc1ccc(-c2nnc(SCc3nc4ccccc4o3)n2C)cc1,198.0%[activator],40.8%
CC(C)(C)C(=O)C(Cc1ccc(C#N)cc1)C(=O)C(C)(C)C,-2.5%,-1.3%
CC(C)c1ccc(NC(=O)CN2C(=O)c3ccccc3S2(=O)=O)cc1,23.5%,-0.2%
COC(=O)c1ccc(-n2c(/C=C/c3cc(OC)c(OC)c(OC)c3)nc3cc(Cl)ccc3c2=O)cc1,-11.2%,18.5%
CC(C)N(Cc1ccccc1)C(=O)COC(=O)c1cccc(Cl)c1Cl,5.5%,0.9%
CCc1ccc(NC(=O)CSc2nnc3[nH]c(=O)cc(-c4ccccc4)n23)cc1,10.1%,2.4%
Cc1ccc(S(=O)(=O)Nc2nc3ccccc3nc2Nc2ccc(C)c(F)c2)cc1,1.0%,1.7%
CCOC(=O)c1cccc(NC(=O)CCc2c(C)nc3cc(-c4ccc(Cl)cc4)nn3c2C)c1,?,-11.6%
CC1CCC(C(C)C)C(OC(=O)CSC2=NCCS2)C1 (stereo not given),-6.3%,-1.3%
Cc1cc(N2CCOCC2)nc(Nc2ccc(NC(=O)Nc3cccc(Cl)c3)cc2)n1,?,?
O=C(O)C(=O)CCc1cccs1,11.7%,8.8%
O=C(CCc1c(-c2ccc(F)cc2)[nH]c2ccccc12)N1CCCC1,0.7%,97.9%[activator]
COc1ccc2c(C)c(CCC(=O)N3CCCC3)c(=O)oc2c1,205.9%[activator],36.3%[activator]
CCOc1ccccc1C(=O)N(Cc1c(F)cccc1Cl)c1ccccn1,-6.1%,-54.2%
Cc1ccc(-c2nc3ccccc3o2)cc1NC(=O)c1cccs1,9.7%,-3.0%
COc1ccc(-n2c(=O)c3c(c4cc(OC)ccc4n3C)n(CCC(C)C)c2=O)cc1,-17.5%,-11.9%
CC(Nc1ccc2c(c1)OCCCO2)c1nc2scc(-c3cccs3)c2c(=O)[nH]1 (stereo not given),42.0%[activator],8.2%
CCOc1cccc(CC(=O)Nc2ccc3nc(N4CCCCC4)cc(C)c3c2)c1OCC,-9.1%,-8.7%

# Quoted at random: 5 records from the list
SMILES,2A firefly,StopGo RLuc
O=C(CCc1c(-c2ccc(F)cc2)[nH]c2ccccc12)N1CCCC1,0.7%,97.9%[activator]
Cc1ccc(-c2nc3ccccc3o2)cc1NC(=O)c1cccs1,9.7%,-3.0%
COc1ccc2c(C)c(CCC(=O)N3CCCC3)c(=O)oc2c1,205.9%[activator],36.3%[activator]
CC1CCC(C(C)C)C(OC(=O)CSC2=NCCS2)C1 (stereo not given),-6.3%,-1.3%
COc1ccc(-n2c(=O)c3c(c4cc(OC)ccc4n3C)n(CCC(C)C)c2=O)cc1,-17.5%,-11.9%

# Back to the main list, starting two compounds before the break.
SMILES,2A firefly,StopGo RLuc
CC(Nc1ccc2c(c1)OCCCO2)c1nc2scc(-c3cccs3)c2c(=O)[nH]1 (stereo not given),42.0%[activator],8.2%
CCOc1cccc(CC(=O)Nc2ccc3nc(N4CCCCC4)cc(C)c3c2)c1OCC,-9.1%,-8.7%
O=C(CN1CCCC(C(F)(F)F)C1)Nc1cccc2ncccc12 (stereo not given),6.9%,-0.1%
CC(C)C(=O)Nc1cccc(NC(=O)C2(c3ccccc3)CCCC2)c1,-8.9%,10.2%
CC(C)c1noc(C(C)Sc2n[nH]c(-c3ccccc3F)n2)n1 (stereo not given),0.0%,0.0%
CCCn1nc(C(=O)OCCOc2ccc(OC)cc2)c2ccccc2c1=O,7.8%,-4.6%
O=C(NCCn1c(-c2ccccc2)nc2ccccc21)NCc1ccccc1,23.4%,16.8%
Cc1ccc(CC(=O)NC2CCCCC2C)cc1 (stereo not given),40.6%[activator],14.7%
CC(=O)N1CCN(C(=O)CSc2cc(C)c3cccc(C)c3n2)CC1,9.1%,28.8%
CCOc1ccc(NC(=O)Cn2ccn3nc(-c4ccc(OC)c(OC)c4)cc3c2=O)cc1,57.4%[activator],-3.9%
CCCS(=O)(=O)N1CCCC1C(=O)NC1CCCC1 (stereo not given),80.9%[activator],-11.9%
CCC(=O)N1CCc2cc(S(=O)(=O)CCC(=O)Nc3ccc(Cl)c(C(F)(F)F)c3)ccc21,26.0%,1.2%
O=C(NCCc1ccccc1Cl)c1ccc2c(=O)n(-c3ccccc3)c(=O)[nH]c2c1,-8.6%,17.9%
CC1(C)O[C@H]2[C@@H](O1)[C@@H](C(=O)Nc1ccccc1O)O[C@@H]1OC(C)(C)O[C@@H]12,2.6%,17.9%
O=C(CCNS(=O)(=O)c1ccc2c(c1)CCN2C(=O)C1CC1)N1CCN(c2ccc(F)cc2)CC1,-5.5%,-5.3%
CCc1ccc(-n2c(Cc3ccccc3)nnc2SCc2nc(-c3cccs3)no2)cc1,-2.5%,-9.0%
CCOc1cccc2c1Oc1nc(-c3cc(OC)ccc3OC)[nH]c(=O)c1C2,44.0%[activator],31.5%[activator]

# Bioassay records (PubChem)
